Beta2AR agonist: human beta-2 adrenergic receptor agonism by FAP; Am2.2-beta2AR cells, FAP receptor internalization, flow cytometry; reference of the scale not given here; response, % (no concentration beside the values); hit rate 0.43% among 340,000; AID 504454;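 active = response above a set limit, near 3 SD of response in nonfluorescent compounds, cut at about 42% in these data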;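 note: stock transfer was 100 nL into about 11 µL; a reference agonist was the positive control; negative values mostly stem from fluorescent compounds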
E coli growth: E. coli growth inhibition | AID 1053175 | OD600 absorbance (concentration not given with the values) | Escherichia coli growth, OD600, 23 h; hits give low values | hit rate 0.21% among 330,000;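 active = OD600 absorbance below the run mean of sample wells minus 3.6 SD, in any replicate, cut at about 0.56 in these data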;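 note: stock transfer was 300 nL into about 60 µL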
UCH37 DUB inh: blocks the human deubiquitinase UCH37; Q9Y5K5; purified proteasome/UCH37, Ub-AMC cleavage fluorescence; inhibition, % (no concentration beside the values); hit rate 0.33% among 330,000;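 active = mean of two replicates above 20%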;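 note: 0% = compound-free wells with enzyme and 100% = wells lacking proteasome; stock transfer was 100 nL into about 20 µL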
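assay system = human UCH37 enzyme supplied as purified proteasome complex | amount = proteasome at 0.15 nM in the dispensed enzyme solution | schedule = 30 min compound-proteasome preincubation then 25 min substrate reaction, room temperature | measured by = fluorescence, ex 355 nm, em 460 nm | benchmarks = no-proteasome wells (full inhibition) and compound-free wells (no inhibition)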
A1 inh: inhibitors of the anti-apoptotic protein A1, read as caspase activation; MEF A1-2A-BIM cells, Caspase-Glo 3/7 luminescence, 3 h; percent of clofoctol response, vehicle zero; caspase activation, % (no concentration beside the values); hit rate 0.066% among 330,000; AID 2462;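 active = over half of replicate activation scores above 10%, or exactly half above 10 with the replicate mean above 10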;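 note: wells of about 30 µL received 50 nL stock; many hits fall short of the cut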
HNF4A DNA FP: change in binding of human HNF4 alpha to DNA. HNF4a-FITC DNA binding, fluorescence polarization, 1 h. activity change, % at 10 µM. hit rate 0.3% among 360,000. AID 1224865; in the data active = activity change above about 30%, passing the limit was not always enough;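 note: controls were the assay level and a saturating level of protein; the project sought stronger binding though the title names inhibitors; some compounds called inactive have numbers as strong as hits; positive values seem to mean higher polarization but the record does not say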
LANA-H2B inh: blocks KSHV LANA binding to histone H2A/H2B. hit rate 0.6% among 320,000. Q9QR71. cell-free LANA-H2A/H2B peptide, fluorescence polarization. inhibition, % (concentration not given with the values); in the data active = inhibition mostly above about 10%, no sharp cut-off; inactive = mostly below about 6.7%;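 note: stock transfer was 7.5 nL into about 10 µL; 0% = median of vehicle wells and 100% = median of positive control wells; one replicate is shown; the record names a cut of 25% in any replicate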
Target sequence (Q9QR71 whole entry, looked up): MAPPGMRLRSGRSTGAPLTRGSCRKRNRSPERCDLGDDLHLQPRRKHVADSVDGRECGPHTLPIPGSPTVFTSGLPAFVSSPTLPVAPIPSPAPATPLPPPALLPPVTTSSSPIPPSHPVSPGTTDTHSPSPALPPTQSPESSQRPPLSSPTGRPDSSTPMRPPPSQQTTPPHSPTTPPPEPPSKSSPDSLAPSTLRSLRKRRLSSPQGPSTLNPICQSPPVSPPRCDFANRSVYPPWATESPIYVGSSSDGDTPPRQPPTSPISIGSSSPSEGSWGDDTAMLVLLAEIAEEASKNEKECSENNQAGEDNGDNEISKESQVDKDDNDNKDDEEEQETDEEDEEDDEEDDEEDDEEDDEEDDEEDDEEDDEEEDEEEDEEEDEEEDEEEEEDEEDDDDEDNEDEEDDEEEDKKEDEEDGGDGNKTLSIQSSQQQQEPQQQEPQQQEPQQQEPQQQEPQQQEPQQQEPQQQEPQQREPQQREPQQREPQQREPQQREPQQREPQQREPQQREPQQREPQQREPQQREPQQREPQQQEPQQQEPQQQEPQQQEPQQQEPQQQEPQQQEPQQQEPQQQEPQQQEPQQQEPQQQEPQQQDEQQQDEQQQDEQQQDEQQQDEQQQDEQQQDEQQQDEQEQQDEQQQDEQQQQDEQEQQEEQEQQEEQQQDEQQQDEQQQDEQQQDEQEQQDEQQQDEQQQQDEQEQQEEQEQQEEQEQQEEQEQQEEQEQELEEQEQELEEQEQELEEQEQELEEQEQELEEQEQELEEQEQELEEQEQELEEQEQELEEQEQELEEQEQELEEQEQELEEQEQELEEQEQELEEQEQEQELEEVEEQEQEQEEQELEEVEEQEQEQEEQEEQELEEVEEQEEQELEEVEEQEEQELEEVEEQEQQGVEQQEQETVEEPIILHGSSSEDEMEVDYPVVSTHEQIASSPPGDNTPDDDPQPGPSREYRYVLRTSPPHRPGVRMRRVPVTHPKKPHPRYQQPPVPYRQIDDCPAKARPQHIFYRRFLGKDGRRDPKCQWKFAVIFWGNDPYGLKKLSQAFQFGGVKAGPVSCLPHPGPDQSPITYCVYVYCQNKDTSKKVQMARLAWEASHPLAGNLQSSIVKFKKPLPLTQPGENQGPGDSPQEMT
Vif TR-FRET: inhibitors of Vif binding to APOBEC3G peptide, primary screen, biochemical, TR-FRET, GST-Vif 1-94, biotin-A3G peptide, dose response retest (AID 1117319) | hit rate 0.57% among 260,000 | inhibition, %, or IC50 in µM where a hit was titrated | TR-FRET GST-Vif / biotin-A3G peptide binding; higher % means a stronger effect; test concentration not given here; strong numbers were not always called active;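 active = above the screen mean plus three standard deviations and confirmed in dose response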;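 note: Vif residues 1-94 fused to GST binding biotinylated APOBEC3G peptide 110-148; 0% = full assay without inhibitor and 100% = GST in place of GST-Vif; retest series ran down from 100 µM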
An asterisk follows results filed as active; / = no result given; & = joins results of further samples.

item	mol	Beta2AR agonist	E coli growth	UCH37 DUB inh	A1 inh	HNF4A DNA FP	LANA-H2B inh	Vif TR-FRET
1	COc1ccc2[nH]c(=O)c(C3c4cc(OC)c(OC)cc4CCN3C(=O)c3ccco3)cc2c1 (stereo not drawn)	0	0.67	-45	0.2	4.2	3.9	/
2	CC(C)CNc1nnnc2c1sc1nc(N3CCOCC3)c3c(c12)CC(C)(C)SC3	0	0.72	4.7	-0.6	-2.9	-5.4	-2%
3	CCCc1[nH]nc2c1C(c1ccc(OC)c(Cn3nnc4ccccc43)c1)C(C#N)=C(N)O2 (stereo not drawn)	3	0.77	1.4	0.2	2.1	-0.3	7%
4	O=C(CCC(=O)Nc1ccccc1)NNS(=O)(=O)c1ccccc1[N+](=O)[O-]	6	0.71	3.7	0.1	-0.6	6.2	1%
5	CCc1nnc(NC(=O)C2Cc3ccccc3CN2S(=O)(=O)c2ccc(C)cc2)s1 (stereo not drawn)	0	0.71	2.8	-0.3	1.3	-4.1	-2%
6	Cc1cc(C)c(S(=O)(=O)N2CCOC2CNC(=O)C(=O)NCCCN2CCCC2=O)c(C)c1 (stereo not drawn)	-3	0.73	6.6	-1.6	-1.5	0.8	/
7	COc1ccc(OC)c(-c2cc(C(=O)N3CCc4ccccc4C3)no2)c1	9	0.66	-27	0.1	0.8	-3.0	1%
8	COc1ccc(S(=O)(=O)N2CCC(C(=O)NCc3ccco3)CC2)cc1C	-7	0.68	7.5	-1.0	1.7	-0.9	-4%
9	COc1ccccc1/C=C/CN1CCOCC1	-4	0.64	-0.8	-0.7	-2.8	-9.0	-4%
10	COc1cc(/C=N/n2c(C3CCCCC3)n[nH]c2=S)cc(Br)c1O	4	/	/	0.0	1.5	3.0	-6%
11	CC(C)CC1=NN(C(=O)c2cccnc2)C(O)(C(F)(F)F)C1 (stereo not drawn)	3	0.7	3.0	0.0	-3.2	1.8	13%
12	CCOc1nc(-c2ccccc2Cl)nc2ccccc12	5	0.7	5.6	0.7	-0.8	-3.0	-1%
13	CCCCCc1nc(N)c(C#N)c(-c2ccco2)c1CCCC	4	0.77	-23	0.3	-2.4	0.8	1%
14	O=C(CSc1ccccc1C(=O)O)NCc1ccccc1	-4	0.71	-1.0	-0.2	1.4	-5.0	-2%
15	Cc1[nH]n(-c2ccccc2)c(=O)c1/C=N/N1C(=O)c2ccc3c4c(ccc(c24)C1=O)CC3	-6	/	/	0.1	-5.0	/	19%
16	CN(C(=O)CNc1ccccc1Cl)C1CCS(=O)(=O)C1 (stereo not drawn)	-1	0.69	-0.7	-0.7	1.6	-2.4	/
17	CC[C@]1(C(=O)OC)[C@H]2C(=O)N(C)C(=O)[C@H]2[C@H]2CN=C(SCc3ccc(C#N)cc3)N21	-1	0.7	3.5	/	-2.2	/	5%
18	Cc1cc(C)nc(N2CCC(C(=O)N3CCN(c4cc(Cl)ccc4C)CC3)CC2)n1	22	0.71	3.7	1.0	2.7	0.9	1%
19	COc1cccc(CN2CC(C(=O)NCCn3cccn3)CCC2=O)c1 (stereo not drawn)	1	0.68	-0.9	-1.0	0.2	1.8	/
20	O=C(COC(=O)c1ccccc1C(=O)c1ccc(Cl)c([N+](=O)[O-])c1)NC1CCCCCC1	53*	0.76	1.9	0.9	0.2	-2.6	7%
21	COCC(C)NC(C(=O)Nc1cccc(C(C)=O)c1)c1ccccc1 (stereo not drawn)	-3	0.72	3.0	-0.1	-2.7	-5.2	/
22	COc1cc(NC(=O)c2cc(=O)[nH]c3ccc(S(=O)(=O)N4CCOCC4)cc23)cc(OC)c1	-4	0.72	4.8	/	-0.7	/	-1%
23	Cc1ccc(NC(=S)N(CCN(C)C)Cc2cc3cc(C)ccc3[nH]c2=O)cc1	13	0.72	2.1	-0.3	0.9	1.8	/
24	CN(CC(=O)Nc1ccccc1Cl)C(=O)c1ccc(N2C(=O)CCC2=O)cc1	3	0.69	-0.9	/	0.3	/	2%
25	Cc1ccc(C)c(N2CCN(C(=O)Nc3ccc4c(c3)N(C)C(=O)CS4)CC2)c1	11	0.72	1.8	-1.3	2.5	-0.4	/
26	CC(NC(=O)C(CC(=O)OC(C)(C)C)NC(=O)OC(C)(C)C)C(N)=O (stereo not drawn)	8	0.72	0.2	-0.4	1.2	-1.5	6%
27	CCOc1ccc(-c2cc(CCCC(=O)NCCC(C)C)no2)cc1	-3	0.72	-1.3	0.8	0.6	-1.6	4%
28	COc1ccc(CCN(C)C(=O)Cc2ccc(-c3ccccc3)cc2)cc1OC	14	0.68	-1.6	-0.8	3.2	-1.2	0%
29	Nn1cnc2sc3c(c2c1=O)CCC3	-2	0.72	1.3	0.2	0.9	1.7	7%
30	COc1ccc(CCC(=O)NCCOc2ccccc2Cl)cc1	-8	0.65	3.2	-0.5	-3.6	0.4	/
31	O=C(NC1CCCCC1)C(c1ccncc1)N(CC1CCCO1)C(=O)C(F)(F)F (stereo not drawn)	1	0.71	3.1	0.9	-1.3	-0.7	27%
32	CCc1cc2cccc(C)c2nc1SCC(=O)N1CCN(C(=O)c2ccco2)CC1	-4	0.72	4.1	0.2	2.6	-1.1	-2%&6%
33	COc1ccc(N=CC2=C(O)CCCC2=O)cc1	-2	0.7	5.0	-0.8	0.0	-1.9	72%
34	CCC1(CC)C(=O)NC(=S)N=C1N	1	0.73	1.5	/	-0.5	/	-4%
35	Cc1nn(CC(=O)OCC(=O)c2ccc(OC(F)F)cc2)c(C)c1[N+](=O)[O-]	-2	0.69	1.4	-1.2	-0.2	-1.5	/
36	CC(C)(C)C(C(=O)n1cccc1C#N)c1ccccc1 (stereo not drawn)	-7	0.7	-2.4	0.5	0.7	0.9	/
37	Cc1cccc(C)c1OC(=O)CSc1nnc(-c2ccccc2)o1	4	0.77	6.6	-1.4	-0.3	-5.4	-3%
38	Cc1ccc(Cn2nc3c(cc2=O)CCc2ccccc2-3)cc1	-12	0.66	-4.0	0.0	3.9	-8.8	/
39	O=C(Nc1cccnc1)c1cc(-c2ccc3c(c2)OCO3)on1	14	0.69	-6.9	-7.1	-0.5	-1.5	18%
40	O=C(c1cnc2c(c1)COc1ccc(Cl)cc1-2)c1ccccc1O	-7	0.79	3.9	0.9	-0.8	1.2	29%
41	CCOC(=O)C(Cc1cc(N)c(Oc2ccc(OC)cc2)c(N)c1)NC(C)=O (stereo not drawn)	-2	0.69	3.3	/	0.8	/	3%
42	O=C(c1cccc(NS(=O)(=O)c2ccc(F)c(F)c2)c1)N1CCCCC1	-3	0.7	2.3	/	-2.3	/	0%
43	C[C@@H]1CN([C@@H](C)CO)C(=O)Cc2cc(NC(=O)Nc3ccc(F)cc3)ccc2O[C@@H]1CN(C)Cc1ccc(Cl)c(Cl)c1	9	/	1.5	0.7	-1.9	-0.5	/
44	Cc1cc(C(=O)Nc2ccc(F)c(Cl)c2)on1	-1	0.64	0.9	-1.6	-0.7	-1.9	7%
45	CN1CCCC(OC(=O)/C(C#N)=C/c2ccccc2)C1 (stereo not drawn)	8	0.66	-0.6	0.3	1.9	/	/
46	COc1ccc(CN2C(=O)[C@@H]3C(c4ccc(F)cc4)=NO[C@@H]3C2=O)cc1	-9	0.79	-1.9	0.8	-2.5	-4.0	3%
47	Cc1ccccc1Nc1nc(N)nc(COC(=O)C(NC(=O)c2ccco2)C(C)C)n1 (stereo not drawn)	5	0.7	0.3	-0.4	-0.7	1.1	-3%
48	CN=C1c2ccccc2CN1c1cccc(C(=O)OC)c1	-1	0.74	8.8	0.2	0.1	-2.5	-3%
49	COc1ccc(C(=O)Cc2cc(OC)c(OC)cc2C(=O)c2ccccc2F)cc1OC	12	0.69	0.7	0.7	1.1	-3.4	-3%
50	CC(OCC(O)CN1CCCCC1CCO)c1ccc(Cl)cc1 (stereo not drawn)	-8	0.69	4.8	0.1	0.5	-1.9	/

(more compounds)
item	mol	Beta2AR agonist	E coli growth	UCH37 DUB inh	A1 inh	HNF4A DNA FP	LANA-H2B inh	Vif TR-FRET
51	CC(=O)c1ccc(NC(=O)c2cnsn2)cc1	-10	0.68	3.5	-4.2	-1.3	4.1	5%
52	O=c1[nH]cnc2c1c(-c1ccccc1)cn2-c1ccc(F)cc1	2	0.64	2.7	0.3	2.1	-0.6	-4%
53	O=C(/C=C/c1ccccc1)NC(NC(=S)Nc1ccc(Cl)cc1)C(Cl)(Cl)Cl (stereo not drawn)	4	0.74	2.7	0.2	1.1	-3.6	4%
54	O=C(Nc1ccccc1)C1CCCN1C(=O)NCc1ccccc1 (stereo not drawn)	0	0.67	0.9	0.4	-2.3	-1.4	16%
55	Cc1ccc(/C=N/n2c(-c3cccc(Cl)c3)n[nH]c2=S)o1	6	/	/	-0.6	-5.0	1.0	1%
56	N#Cc1nccnc1N1CCN(C(=O)Nc2ccccc2)CC1	-8	0.63	3.6	-0.1	-4.5	0.9	11%
57	CCN(CC)CCCNC(=O)c1cc(Nc2ccc(OC)cc2)nc2ccccc12	1	0.7	0.5	-0.4	2.0	-0.5	1%
58	Cc1ccc(C(=O)/C=C2/NC(=O)CS2)cc1	6	0.71	15	-1.5	0.0	-0.6	-1%
59	CC(C)C[C@@H](COc1ccccc1)N1CCN(CC(C)C)CCC1=O	-3	/	1.6	0.6	-2.6	0.0	/
60	COC(=O)c1ccc2nc(-c3ccc4c(c3)OCO4)cn2c1	2	0.72	-30	-2.3	0.4	1.9	16%
61	COc1ccc(CCNC(=O)c2ccc(S(=O)(=O)N(C)c3ccccc3)cc2)cc1OC	-5	0.67	5.6	1.0	1.8	-6.4	/
62	COc1cc(NC(=O)CCN2CC(C)OC(C)C2)cc(OC)c1 (stereo not drawn)	15	0.61	0.6	-0.1	-2.1	-1.6	/
63	Cc1ccc(CNC(=O)C2CCC(=O)N2C2CCCCC2)cc1 (stereo not drawn)	7	0.65	0.8	-1.4	1.6	0.9	4%
64	O=C(CCNS(=O)(=O)c1ccc(Br)cc1)Nc1cccc(F)c1	0	0.69	3.1	-1.0	-3.8	2.9	/
65	COc1ccc(Nc2nnc(SCC(=O)NC3CCS(=O)(=O)C3)s2)cc1 (stereo not drawn)	-4	0.68	6.9	/	-1.1	/	-4%
66	N#CCc1nn(-c2ccc(Cl)cc2)c(N)c1C#N	-5	0.66	1.3	0.5	11	6.4	2%
